# Screening results from PubChem BioAssay.
# PrP UTR inh: suppresses PrP 5' UTR mRNA reporter expression. cell-based PrP 5' UTR mRNA reporter, plate reader. inhibition, % (concentration not given with the values). 340,000 compounds, 0.35% hits. AID 488862;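 active = every replicate at 50% or more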;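 note: 0 = median of the neutral control wells; tested in H4 reporter cells; numbers are from one replicate; inactives centre near -14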
# Sa ugtP lethal: kills S. aureus RN4220 lacking UgtP. S. aureus RN4220 ugtP deletion, OD600 growth, 16 h; some inactives read as strong as hits. AID 1259309. growth inhibition, % (test concentration not listed). 330,000 compounds, 0.54% hits;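 active = z-score under -3 and OD600 up to 0.15 on both plates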;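 note: plate controls were untreated wells for no effect and antibiotic for full effect; wells of about 80 µL received 100 nL stock; the first replicate is given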
# Sa RN4220 lethal: kills Staphylococcus aureus RN4220; S. aureus RN4220 growth, OD600, 16 h; inhibition, % (concentration not given with the values); 330,000 compounds, 0.33% hits;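 active = z-score of -3 or lower and OD600 up to 0.18 on both plates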;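 note: plate controls were untreated cells for no effect and reference antibiotic for full effect; stock transfer was 100 nL into about 80 µL; one replicate is shown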
# Mtb hypoxia rep: Mtb hypoxia fluorescent reporter inhibition | M. tuberculosis hypoxia-regulated fluorescent reporter, fluorescence | fluorescence inhibition, % (test concentration not listed) | 300,000 compounds, 0.1% hits;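 active = 35 to 45% if threefold the growth effect, above 45% if 1.5-fold the growth effect; inactive = the rest, general growth blockers included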;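 note: wells of about 50 µL received 100 nL stock; 0% = vehicle wells and 100% = reference inhibitor wells; whole bacteria with a GFP reporter of the hypoxia response; strong numbers were not always called active; many hits fall short of the cut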
# BJeLR viability: BJeLR cell viability loss; inhibition, % (test concentration not listed); 300,000 compounds, 0.17% hits; BJeLR (HRASV12) viability, CellTiter-Glo ATP luminescence, 48 h; reference of the scale not given here;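 active = replicate mean above 50%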;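 note: 50 nL library stock added to about 25 µL; numbers are from one replicate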
# Autofluor counter: compound fluorescence in toxin protease inhibitor counterscreen; compound autofluorescence counterscreen, microsphere flow cytometry; active compounds read high; fluorescence intensity (test concentration not listed); 360,000 compounds, 3.1% hits;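 active = at least 3 SD above the mean of all compounds, about 16000 in these data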;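 note: 100 nL of 1 mM stock went into each well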
# Mtb hypoxia rep growth: also measured in Mtb hypoxia rep; calls as there; growth inhibition, %; measured here: M. tuberculosis growth (absorbance);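 0% = vehicle and 100% = reference antibiotic; read after six days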
# Starred values were filed as active, the others as inactive; x = no result given.
# Values in the order – PrP UTR inh | Sa ugtP lethal | Sa RN4220 lethal | Mtb hypoxia rep | Mtb hypoxia rep growth | BJeLR viability | Autofluor counter
CC(C)Cn1c(=O)c2ccccc2c2ccccc2c1=O
    -17 | 30 | -8.1 | 3 | 14 | -8 | 8229
CCCCCOc1ccc(C(=O)NCC(=O)NCC(=O)OCC)cc1
    -17 | 0 | 1.6 | x | x | 13 | 5308
COCCN(CC(=O)Nc1cccc(C)c1C)C(=O)Cc1sc(C)nc1-c1ccc(F)cc1
    -27 | 6 | 5.2 | -6 | 0 | x | 2835
O=C(OCC(=O)N(C1CCCCC1)C1CCCCC1)c1ccco1
    -27 | 0 | -1.2 | -6 | 4 | -14 | 11004
CCCCn1nc2cc(C(=O)NCc3ccccc3)ccc2c1OCC
    14 | -5 | 5.2 | 16 | 9 | 6 | 3674
CCOC(=O)c1nnn2c1nc(N1CCCCC1)c1ccccc12
    -19 | 3 | 4.0 | 6 | 4 | -13 | 3771
CCOC(=O)c1cc(-c2ccccc2)sc1NC(=O)C(C)OC(=O)c1ccncc1 (configuration not stated)
    -5 | -9 | 8.8 | 9 | -2 | -6 | 9654
Cc1ccc(CNC(=O)CCS(=O)(=O)c2ccc3c(c2)NC(=O)CO3)cc1
    -30 | 3 | 2.6 | 11 | 0 | -1 | 5988
Cc1ccc(-c2csc3nnc(SCC(=O)NCc4ccc5c(c4)OCO5)n23)cc1
    x | -11 | 2.3 | 5 | 6 | -1 | 11448
COc1cc(N2CCCC2)c(OC)cc1C=O
    -8 | x | x | x | x | 5 | 3924
Cc1ccc(C)c(NC(=O)CN(C)C(=O)c2ccncc2)c1
    -25 | -3 | 2.9 | 4 | 0 | 5 | 5298
COc1cc2c(cc1OC)C1=NC(=O)CN1C(SCc1ccc(C)cc1)=N2
    -9 | -4 | 1.4 | x | x | 9 | 2719
NC1=NOC(=O)C1C1CCCCC1 (configuration not stated)
    -27 | 3 | -0.6 | 3 | 2 | x | 3551
O=C1COc2ccc(C(=O)NCc3ccc4c(c3)OCO4)cc2N1
    -13 | 5 | 4.1 | -3 | -2 | -1 | 9803
N#Cc1c(N=Cc2cccnc2)sc2c1CCCC2
    x | 0 | -1.2 | 0 | 15 | x | x
Cc1cc(C)nc(NC(=O)c2ccc3c(c2)OCO3)c1
    x | -2 | 2.6 | -2 | 6 | 3 | x
NS(=O)(=O)c1cc(C(=O)NCCOc2ccccc2)c(Cl)cc1Cl
    -13 | 13 | 7.6 | -3 | 2 | 0 | 10437
CC(C)CCn1nnnc1C(c1ccccc1F)N1CCC(C(N)=O)CC1 (configuration not stated)
    -16 | 10 | 5.4 | x | x | 1 | 4058
O=C(CCN1CCOCC1)NNC(=O)Nc1cccc(C(F)(F)F)c1
    -21 | 0 | 2.8 | 10 | 7 | -2 | 5529
NC(=O)c1cc(S(=O)(=O)NCCc2ccc(Cl)cc2)cs1
    -9 | 1 | 0.3 | 3 | 6 | -6 | 5212
O=c1oc2ccccc2n1Cc1cccc(F)c1
    -15 | 6 | 7.1 | 8 | -5 | 2 | 3175
CN(C)C(/C=C/Nc1ccc(Br)cc1)=C(C#N)C#N
    -20 | -6 | -1.0 | -6 | -8 | 2 | 4333
O=C1CCCN1c1ccc(S(=O)(=O)Oc2cccc(Cl)c2)cc1[N+](=O)[O-]
    -28 | -2 | 6.9 | 12 | 14 | -2 | 3565
CCN1CC(CN(C)Cc2nc(-c3cccs3)no2)CC1=O (configuration not stated)
    -11 | -3 | 6.6 | 13 | 11 | -12 | 4374
COc1ccc(NC(=O)CN(C)C(=O)c2cc3c(s2)CCC3)cc1
    -17 | x | x | x | x | -2 | 6946
Cc1nc(Nc2ccc(S(N)(=O)=O)cc2)sc1C(=O)Nc1ccccc1
    -17 | -3 | 2.3 | -3 | 0 | 1 | 4141
CSc1ccc(C(=S)N2CCN(C(c3ccccc3)c3ccccc3)CC2)cc1
    -17 | 12 | -3.1 | 14 | 8 | 2 | 25174*
CC(=O)/C=C(\C)Nc1ccc(-c2cnc(-c3ccccc3)o2)cc1
    -45 | -32 | -6.8 | x | x | -1 | 2675
O=C(c1ccccc1NS(=O)(=O)c1ccc(Br)cc1)N1CCOCC1
    -12 | 0 | -0.9 | 1 | 6 | 0 | 5763
CC(=O)c1nnn(-c2ccc([N+](=O)[O-])cc2)c1C
    -26 | 3 | 2.8 | -1 | -2 | -7 | 4084
O=C(NN=Cc1c(O)ccc2ccccc12)Nc1ccccc1
    x | -27 | 1.1 | -3 | 8 | x | x
CCOC(=O)C1=C(c2ccccc2)N=C2SCC(=O)N2C1c1cccc(OC)c1 (configuration not stated)
    -16 | 4 | 4.5 | x | x | 6 | 2904
CCOC(=O)CCS(=O)(=O)c1nc(-c2ccccc2)cc(C(F)(F)F)n1
    -15 | x | x | x | x | 23 | 2373
O=C(NNc1ccc(C(F)(F)F)cc1[N+](=O)[O-])c1ccc(NS(=O)(=O)c2ccc(F)cc2)cc1
    -10 | -18 | -1.4 | 2 | -2 | 6 | 7701
COc1cccc(/C=N/NC(=O)CNC(=O)CCc2ccccc2)c1O
    -11 | x | x | x | x | 1 | 4616
CC(Sc1nncn1C)C(=O)Nc1ccc2ccccc2c1 (configuration not stated)
    4 | 3 | 3.3 | 2 | -11 | x | 4682
Cc1ccc(NC(=O)Cn2nnc(C(=O)Nc3ccc(F)c(Cl)c3)c2N)cc1
    5 | 8 | 5.9 | -4 | -10 | -2 | 3994

# Entries from the list above that contain four or more nitrogen atoms:
# Values in the order – PrP UTR inh | Sa ugtP lethal | Sa RN4220 lethal | Mtb hypoxia rep | Mtb hypoxia rep growth | BJeLR viability | Autofluor counter
CCOC(=O)c1nnn2c1nc(N1CCCCC1)c1ccccc12
    -19 | 3 | 4.0 | 6 | 4 | -13 | 3771
Cc1ccc(-c2csc3nnc(SCC(=O)NCc4ccc5c(c4)OCO5)n23)cc1
    x | -11 | 2.3 | 5 | 6 | -1 | 11448
CC(C)CCn1nnnc1C(c1ccccc1F)N1CCC(C(N)=O)CC1 (configuration not stated)
    -16 | 10 | 5.4 | x | x | 1 | 4058
O=C(CCN1CCOCC1)NNC(=O)Nc1cccc(C(F)(F)F)c1
    -21 | 0 | 2.8 | 10 | 7 | -2 | 5529
CN(C)C(/C=C/Nc1ccc(Br)cc1)=C(C#N)C#N
    -20 | -6 | -1.0 | -6 | -8 | 2 | 4333
CCN1CC(CN(C)Cc2nc(-c3cccs3)no2)CC1=O (configuration not stated)
    -11 | -3 | 6.6 | 13 | 11 | -12 | 4374
Cc1nc(Nc2ccc(S(N)(=O)=O)cc2)sc1C(=O)Nc1ccccc1
    -17 | -3 | 2.3 | -3 | 0 | 1 | 4141
CC(=O)c1nnn(-c2ccc([N+](=O)[O-])cc2)c1C
    -26 | 3 | 2.8 | -1 | -2 | -7 | 4084
O=C(NNc1ccc(C(F)(F)F)cc1[N+](=O)[O-])c1ccc(NS(=O)(=O)c2ccc(F)cc2)cc1
    -10 | -18 | -1.4 | 2 | -2 | 6 | 7701
CC(Sc1nncn1C)C(=O)Nc1ccc2ccccc2c1 (configuration not stated)
    4 | 3 | 3.3 | 2 | -11 | x | 4682
Cc1ccc(NC(=O)Cn2nnc(C(=O)Nc3ccc(F)c(Cl)c3)c2N)cc1
    5 | 8 | 5.9 | -4 | -10 | -2 | 3994

# The order is random; about 4% have a hit in one of these screens.
